Screening data deposited in PubChem BioAssay by Southern Research Specialized Biocontainment Screening Center.
Mtb betalactam – beta-lactam sensitization of Mtb H37Rv; M. tuberculosis H37Rv growth with meropenem, percent inhibition; hits of this screen are not shown here; AID 434955; inhibition, % at 25 µM; actives 0.27% (n = 330,000);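 active = about 74% or more and at least 40 points above the plate without the antibiotic, then above 30% in a dose series; inconclusive = first-round hits that could not be retested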;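 also: growth measured after seven days incubation then overnight dye step; 0% = bacteria only wells and 100% = bacteria with antibiotic; twin plates without the antibiotic show which effects depend on it; some results filed as inactive read as strong as hits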
An asterisk follows results filed as active; ? = inconclusive; & = joins results of further samples. Some of the compounds tested; the hit share may differ from the screen's.

smiles	Mtb betalactam
COc1cc2c(cc1OC)CN(C(=O)Nc1ccccc1Cl)CC2	-8.1
COc1cc2c(c(OC)c1OC)-c1ccc(O)c(=O)cc1[C@@H](N)CC2	-1.6
CC(=O)Nc1ccc(C(=O)COC(=O)c2ccco2)c(F)c1	-8.6
COCC(C)N1CCC(n2nccc2NC(=O)CCOc2ccccc2)CC1 (centres undefined)	-1.7
O=C(C[C@@H]1C/C=C\C[C@H](NC(=O)OCC2c3ccccc3-c3ccccc32)C(=O)O[C@H](c2ccccc2)CNC1=O)NCCO	-1.5
CC(Sc1nnc(C2CC2)n1C1CC1)C(=O)N(C)C1(C#N)CCCCC1 (centres undefined)	-9.2
O=c1oc(CCO)cc2ccc(C#Cc3ccsc3)cc12	24.6
O=C(NNC(=O)c1cc(Br)c(Br)s1)c1ccncc1	1.0
COc1ccc(CCNC(=O)/C=C/c2ccc(S(=O)(=O)N3CCOCC3)cc2)cc1	3.2
Cc1noc(C)c1S(=O)(=O)Nc1ccc2c(c1)CC(=O)N([C@H](C)CO)C[C@H](C)[C@@H](CN(C)CC1CC1)O2	-0.7
COc1cc(OC)c(OC)cc1/C=N/NC(=O)c1ccc(CSc2nc(C)cc(C)n2)cc1	-0.5
Cc1nn(C)c(Cl)c1CN1CCC(Oc2ccc(C(=O)N3CCCC3)cc2)CC1	?
Cc1cc(C)c(NC(=O)CCc2c(C)noc2C)c(C)c1	-3.8
Cc1ccsc1C(=O)OC(C)C(=O)Nc1ccc(Cl)cn1 (centres undefined)	-5.2
CCN(CC(=O)NCc1ccc(Cl)cc1)C(=O)c1sccc1C	4.2
CCN(CC(=O)Nc1ccccc1C(F)(F)F)C(=O)Cc1cccs1	-2.9
CCCN1CCN(C(=O)c2ccc(F)c(S(=O)(=O)N3CCOCC3)c2)CC1	-4.2
COc1cc(OC)c(N2CC(C(=O)Nc3cc(Cl)ccc3N3CCOCC3)CC2=O)cc1Cl (centres undefined)	-4.0
Cc1ccc(NC(=O)C2CSC3(C)CCC(=O)N23)cc1S(=O)(=O)N1CCCCCC1 (centres undefined)	0.6
O=C(CN1C(=O)NC2(CCc3ccccc32)C1=O)NCc1ccccc1Cl (centres undefined)	-1.9
CC(=O)Nc1ccc(S(=O)(=O)Nc2ccc3nc(C)sc3c2)cc1	-2.1
CC(C)Oc1ccc(S(=O)(=O)N2CCCCC2)cc1NC(=O)CC1OC(=O)c2ccccc21 (centres undefined)	2.9
CCn1c(CCl)nc2cc(S(=O)(=O)N3CCOCC3)ccc21	90.5
NC(=O)c1ccc(SCC(=O)OCC(=O)NCc2cccs2)c([N+](=O)[O-])c1	0.2
COc1ccc2c(C)cc(SCC(=O)NC3CCCCC3)nc2c1	52.2
CC(C)(C)OC(=O)NCc1ccc(CNC(=O)c2nc[nH]c2C(=O)N2CCN(c3ccccc3)CC2)cc1	1.1
COc1ccc(NC(=O)CSc2ccc(NC(C)=O)cc2)cc1S(=O)(=O)N1CCOCC1	-3.7
COc1cc(NC(=O)COc2ccc(-n3cnnn3)cc2)cc(OC)c1OC	2.4
Cc1cc(C(=O)OCC(=O)NCCN2C(=O)CSC2=O)ccc1[N+](=O)[O-]	-3.8
O=S(=O)(c1ccc2ccccc2c1)N1CCN(c2ccc(O)cc2)CC1	-3.9
CN(C(=O)CSc1nccc(=O)[nH]1)C1CCCCC1	-2.1
COc1cccc(CN(C)C(=O)CCN=C2NS(=O)(=O)c3ccccc32)c1	0.0
CC(Sc1nc2ccccc2c(=O)n1C)C(=O)Nc1ccc2c(c1)OCCO2 (centres undefined)	-0.2
C=CC(C)(C)c1c2occc2c(O)c2ccc(=O)oc12	1.1
CC[C@@H]1C=C(C(=O)O)[C@H](c2ccc(OC)c(OC)c2)N1S(=O)(=O)c1ccc(C)cc1	-3.1
Cc1ccccc1-c1cc(=O)c2ccccc2o1	4.8
Cc1cc(C(=O)OCC(=O)NC2(C#N)CCCCC2)c(C)o1	-7.0
O=C(c1n[nH]c2ccccc12)N1CCN(S(=O)(=O)c2ccccc2)CC1	-1.2
CCCCn1c(N)c(N(CC(C)C)C(=O)CCCc2cccs2)c(=O)[nH]c1=O	-12.1
O=C(NCC(O)CO)c1csc(Nc2cccc3ccccc23)n1 (centres undefined)	0.1

Given as labelled records: entries from further up.
Cc1ccsc1C(=O)OC(C)C(=O)Nc1ccc(Cl)cn1 (centres undefined)
  Mtb betalactam: -5.2
CCN(CC(=O)NCc1ccc(Cl)cc1)C(=O)c1sccc1C
  Mtb betalactam: 4.2
CCN(CC(=O)Nc1ccccc1C(F)(F)F)C(=O)Cc1cccs1
  Mtb betalactam: -2.9

(continued)
Structure	Mtb betalactam
COc1ccc(-n2ncc3c2CC(C)(C)CC3NC(=O)c2ccoc2C)cc1 (centres undefined)	?
CC[C@@]1(C(=O)OC)N[C@H](CN(C)C(=O)Nc2ccc(Cl)cc2)[C@@H]2C(=O)N(Cc3ccccc3)C(=O)[C@@H]21	-1.2
CC(C)(C)OC(=O)C[C@H]1C/C=C\C[C@H](CC(=O)NCCO)C(=O)NC[C@H](c2ccccc2)OC1=O	2.1
Cc1noc(C)c1COc1cccc(C(=O)Nc2ccccc2)c1	-2.4
O=C(CCC(=O)c1ccc(F)cc1)OCc1nnc(-c2ccc([N+](=O)[O-])cc2)o1	-7.7
Cc1cccc(NS(=O)(=O)c2ccc(C)c(C(=O)NCC(c3ccccc3)N(C)C)c2)c1 (centres undefined)	-6.0
CC(=O)/C=C/c1ccccc1	-5.6
O=C(Nc1cc(Cl)ccc1N1CCOCC1)C1CC1	1.6
Cc1ccccc1C(=O)N1CCC(C(=O)OCc2ccccc2Cl)CC1	21.0
CCS(=O)(=O)c1ccc2oc(SCC(=O)c3c(N)n(C4CC4)c(=O)[nH]c3=O)nc2c1	-0.6
COCCn1c(SCC(=O)NC2(C#N)CCCCC2)nc2ccccc2c1=O	0.8
CN(C(=O)c1ccc(NC(=O)C2CCCN(C(=O)OC(C)(C)C)C2)cc1)C1CC1 (centres undefined)	2.4
O=C(COC(=O)c1ccccn1)NNC(=O)c1ccc(Br)cc1	2.9
Cc1ccc(NC(=O)CSC(C)C(=O)OC(C)C(=O)NC2CCCCC2C)cc1 (centres undefined)	1.2
CCN(CC)C(=O)C1CCN(C(=O)c2oc3ccc(C)cc3c2C)CC1	?
CC1(c2ccc(Cl)cc2)NC(=O)N(CC(=O)N2CCc3ccccc3C2)C1=O (centres undefined)	6.6
COc1ccc(N2CCN(C(=O)COC(=O)c3ccc(OC(F)F)cc3)CC2)cc1	15.3
Cn1ccc(C(=O)Nc2sc3c(c2C(N)=O)CCCCC3)n1	?
CC12CCC(=O)N1C(C(=O)Nc1ccccc1N1CCCCC1)CS2 (centres undefined)	6.0
CC(N=C1NS(=O)(=O)c2ccccc21)C(=O)NCc1ccc(F)cc1 (centres undefined)	-0.2
COc1ccc(/C=C/C(=O)OCC(=O)N(C)CC(=O)Nc2ccc(C)cc2)c(OC)c1	2.4
O=C(COC(=O)CC1CCCC1)Nc1ccccc1[N+](=O)[O-]	-2.6
O=C(Nc1ccc(N2CCCC2)cc1)c1ccc(Br)cc1	4.9
Cc1ccsc1CN(C)CC(=O)Nc1ccccc1C(=O)NC1CC1	0.6
NC(=O)c1cc(-c2csc(NCCc3ccccc3)n2)ccc1O	3.1
COc1ccc(NC(=O)CN(C)C(=O)Cc2ccc(-c3ccccc3)cc2)cc1	-1.4
CC(C)Oc1ccc(S(=O)(=O)N2CCOCC2)cc1NC(=O)C1CCCC1	-2.8
CCOc1ccc(Nc2ccc(S(=O)(=O)N3CCN(C)CC3)cc2[N+](=O)[O-])cc1OCC	-5.0
CCOc1ccc(S(=O)(=O)N2CCCCC2)cc1NC(=O)CN1CCCC1c1cccs1 (centres undefined)	6.6
CN(Cc1ccon1)C(=O)CC1C(=O)NCCN1Cc1ccc(F)c(F)c1 (centres undefined)	?
O=C(Nc1ccc(Cl)c(S(=O)(=O)N2CCOCC2)c1)c1ccncc1	7.0
Cc1noc(C)c1NC(=O)N(C)C[C@H]1Oc2ccc(NS(=O)(=O)c3ccccc3)cc2C(=O)N([C@H](C)CO)C[C@@H]1C	-0.3
Cc1cccc(C#N)c1	-6.7
COc1cccc(CN(C)C(=O)c2cc(S(=O)(=O)N3CCCCCC3)ccc2OC)c1	1.6
CC1CN(C(=O)COC(=O)c2cc3ccccc3cc2O)CC(C)O1 (centres undefined)	71.4
CC(C)NC(=O)N(C)C[C@H]1Oc2ccc(NS(=O)(=O)c3ccccc3)cc2C(=O)N([C@H](C)CO)C[C@@H]1C	2.1
CCOc1ccc(C(=O)CCC(=O)N2CCN(c3ccccc3O)CC2)cc1	-11.1
COc1ccc(S(=O)(=O)Nc2cccc3c2O[C@H](CN(C)CC2CC2)[C@@H](C)CN([C@H](C)CO)C3=O)cc1	1.4
CCSc1ccc([C@@H]2[C@H]3C(=O)N(CC)C(=O)[C@H]3[C@]3(C(=O)OC)CCCCN23)cc1OC	-11.2
COc1ccc(C(CNC(=O)c2cccc3cccnc23)N(C)C)cc1 (centres undefined)	6.0
C[C@H](NC(=O)c1nc[nH]c1C(=O)NCc1ccccc1)c1ccccc1	50.9
COc1ccccc1C(=O)NC(=S)Nc1cccnc1Cl	6.7
Cc1cc(Nc2ccc(O)cc2)ccc1N	4.4
C=CCN(c1ccccc1OC)S(=O)(=O)c1cccc(C(=O)NC2=NCCS2)c1	-10.8
O=c1[nH]c(C2CCN(S(=O)(=O)c3ccccc3F)CC2)nc2c1nnn2Cc1ccc(F)cc1	-3.8
CC1CCN(C(CNS(=O)(=O)c2ccccc2)c2ccccc2)CC1 (centres undefined)	-8.3
Cc1cccc(OC(C)C(=O)Nc2cc(S(=O)(=O)N3CCCCC3)ccc2C)c1 (centres undefined)	-7.7
Cc1cc(CN2CCN(CC(=O)Nc3cc(C(F)(F)F)ccc3-n3cncn3)CC2)no1	-0.1
CCCCN(C(=O)c1nn(C)c(=O)c2ccccc12)c1c(N)n(CCC)c(=O)[nH]c1=O	0.4
CN(CC(=O)Nc1ccccc1Cl)C(=O)Cn1cc(C(F)(F)F)ccc1=O	0.1

Other structures.
Structure	Mtb betalactam
C[C@]12CCC3C(CC[C@H]4C[C@@H](O)CC[C@]34C)C1[C@H]1CN=N[C@H]1[C@@H]2O (some centres undefined)	-7.1
CCOc1ccc(-n2c(=O)c3sccc3n(CC(=O)NC3CCCCC3)c2=O)cc1	-1.1
COC(=O)c1sc2nc(C)nc(SCC(=O)Nc3sccc3C(N)=O)c2c1C	0.0
CN(CC(=O)NCc1ccc2c(c1)OCO2)CC(=O)Nc1ccc(F)c(F)c1F	0.4
Cc1ccc(/C=C/C(=O)OCC(=O)c2ccc3c(c2)NC(=O)CO3)o1	3.3
CN(C(=O)c1cccc(S(=O)(=O)N2CCOCC2)c1)c1c(N)n(Cc2ccccc2)c(=O)[nH]c1=O	-2.5
O=C(CCc1ccc(S(=O)(=O)N2CCOCC2)cc1)Nc1c(F)cccc1F	-8.9
COc1ccc(CCNC(=O)COC(=O)c2cc(=O)[nH]c3ccccc23)cc1	-8.4
Cc1oc(-c2ccccc2)nc1C(=O)OCC(=O)NCc1ccccc1	-0.7
C=CCn1c(COc2ccc(OC)cc2)nnc1SC(C)C(=O)NC1CC1 (centres undefined)	-3.6
C[C@H]1CN=C(N(C)C)N1CCc1cccc(F)c1	1.1
O=C(CN1C(=O)NC2(CCCC2)C1=O)NNC(=O)c1ccccc1F	-1.9
CCCCN1CC(=O)N2[C@H]3c4cc(OC)ccc4OC[C@@H]3[C@H](C(=O)OCC)[C@]2(C)C1=O	5.4
Cc1ccc([C@@H]2CC=C(C(=O)O)[C@H](c3ccc(Cl)cc3)N2S(=O)(=O)c2ccccc2C)cc1	4.8
COc1cccc(-c2sc3ccc(OC)cc3c2-c2cc(F)cc(OC)c2)c1	7.7
CC(C)N(Cc1ccccc1)C(=O)CN1C(=O)NC2(CCCC2)C1=O	-1.9
N#CCSc1ccc(S(=O)(=O)N2CCOCC2)cn1	4.7
Cc1ccc(NC(=O)COC(=O)c2c(C)nn(-c3ccccc3)c2C)cc1	-0.4
C=C1C[C@]23C[C@@]1(O)CC[C@H]2[C@@]12C=C[C@H](O)[C@@](C)(C(=O)O1)[C@H]2[C@@H]3C(=O)O	-0.7&-7.0
NC(=O)c1ccsc1NC(=O)CSc1ncnc2sccc12	-0.1
CCOC(=O)[C@@H]1[C@H]2COc3ccccc3[C@@H]2N2C(=O)N(c3ccc(Br)cc3)C(=O)[C@]12C	0.9
Cc1ccc(-n2c(SCC(=O)N(C)C3CCS(=O)(=O)C3)nc3ccccc3c2=O)c(C)c1 (centres undefined)	-2.7
COc1cc(NS(C)(=O)=O)ccc1Nc1c2ccccc2nc2ccccc12	2.0
COc1ccc(NC(=O)CN(C)S(=O)(=O)c2ccc(Cl)cc2)cn1	-11.9
CC1CCN(C(=O)CN2C(=O)NC(c3ccccc3)(c3ccccc3)C2=O)CC1	-0.4

Reprinted at random: 2 compounds from above, in no set order.
Structure	Mtb betalactam
NC(=O)c1ccsc1NC(=O)CSc1ncnc2sccc12	-0.1
CN(CC(=O)NCc1ccc2c(c1)OCO2)CC(=O)Nc1ccc(F)c(F)c1F	0.4

(further entries)
Structure	Mtb betalactam
CC(NC(=O)C(NS(=O)(=O)c1cccs1)C(C)C)c1ccc(S(N)(=O)=O)cc1 (centres undefined)	-13.6
Cc1cc(C)c(NC(=O)COC(=O)Cn2nc(-c3ccccc3)oc2=O)c(C)c1	-4.7
O=C(COC(=O)c1ccccc1Br)NCc1cccs1	-0.9
O=C(Nc1ccc(F)c(Cl)c1)c1cccnc1	-6.3
COc1cc(Cl)c(C)cc1NC(=O)COC(=O)C1=NN(c2ccccc2)C(=O)CC1	-5.7
COc1ccc(C(=O)OCC(=O)NCCN2C(=O)CSC2=O)cc1[N+](=O)[O-]	-4.9
Ic1ccc(N2CCN(Cc3c[nH]c4ncccc34)CC2)cc1	2.4
